AID923 = qHTS Assay for Allosteric/Competitive Inhibitors of Caspase-1: Spectroscopic Profiling in AFC Spectral Region | compound fluorescence, AFC spectral region (405/520 nm); almost no hit is shown here | Potency, µM (series often up to 57.5 µM), without a hit: at the highest dose fluorescence increase, usual class: activators | hit rate 1.1% among 75,000 | AID 923, 2007; active = well fitted activation curve with a large enough effect; inconclusive = small, poorly fitted or top-dose-only effect;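 also: potency is read from the fitted curve at half-maximal effect; 0% is about no effect; scaled to a free AFC standard on each plate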
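Baseline compound fluorescence (AFC region, 405 nm ex/520 nm em) taken from the intercept of kinetic reads with 50 nM caspase-1 and 5 uM Ac-WEHD-AFC; normalized to an on-plate AFC standard curve; compounds titrated up to 57 uM.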
A488 autofl = A488 region autofluorescence. compound autofluorescence, A488 spectral region, dye equivalency; hits give high values. max dye equivalency, M. hit rate 0.1% among 59,000. AID 591; active = above 10 nM dye equivalent; inconclusive = 1 to 10 nM; inactive = 1 nM or less; about half of its hits are not listed in these tables;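 also: highest value over a series up to 38 µM; compound alone in buffer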
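Compound autofluorescence was read in 100 mM Tris pH 8.0 after 15 min at room temperature, ex 480 nm/em 540 nm. Intensities were converted to A488 dye-equivalent concentration using an on-plate six-point A488 standard curve.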
TSHR ag = agonists of human thyroid stimulating hormone receptor; Potency, µM (highest dose often 57.1 µM), for the others: at the top dose activation, hits mostly activators; hit rate 0.48% among 73,000; HEK293-CNG-TSHR cells (CNG channel as cAMP sensor), membrane potential dye, cAMP; P16473; active = well fitted activation curve of enough size with the parental cells flat; inconclusive = any curve in the parental cells; inactive = parental cells flat and receptor cells flat or falling; also: potency is read from the fitted curve at half-maximal effect; % of control where 0% means no effect; weak receptor curves with flat parental cells got no call and are not listed
Target sequence (P16473 whole entry, looked up): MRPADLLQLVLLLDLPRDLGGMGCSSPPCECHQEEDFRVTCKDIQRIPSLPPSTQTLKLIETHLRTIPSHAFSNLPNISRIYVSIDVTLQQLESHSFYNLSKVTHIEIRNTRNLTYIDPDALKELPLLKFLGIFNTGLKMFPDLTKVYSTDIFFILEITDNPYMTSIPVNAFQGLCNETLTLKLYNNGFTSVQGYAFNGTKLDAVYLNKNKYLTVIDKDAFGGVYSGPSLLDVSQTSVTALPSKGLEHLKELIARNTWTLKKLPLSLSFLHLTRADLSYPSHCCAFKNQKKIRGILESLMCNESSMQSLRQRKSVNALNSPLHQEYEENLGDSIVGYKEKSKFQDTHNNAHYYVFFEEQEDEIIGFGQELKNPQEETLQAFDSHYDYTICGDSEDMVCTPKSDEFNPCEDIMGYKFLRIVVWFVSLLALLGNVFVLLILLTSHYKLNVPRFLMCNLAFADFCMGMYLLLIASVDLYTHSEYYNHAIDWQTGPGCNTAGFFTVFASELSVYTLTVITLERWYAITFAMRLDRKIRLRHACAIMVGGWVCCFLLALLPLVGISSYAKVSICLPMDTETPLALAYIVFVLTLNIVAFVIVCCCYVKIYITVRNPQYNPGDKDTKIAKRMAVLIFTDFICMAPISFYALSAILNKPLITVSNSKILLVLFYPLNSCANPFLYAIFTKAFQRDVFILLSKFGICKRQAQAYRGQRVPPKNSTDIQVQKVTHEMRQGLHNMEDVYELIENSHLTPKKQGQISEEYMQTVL
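HEK 293 cells stably expressing TSHR and a modified CNG channel, with CNG-only parental cells as counterscreen, were preloaded 60 min at room temperature with membrane potential dye containing 100 uM RO 20-1724. Compound exposure was 30 min, and depolarization was read as fluorescence at 590 nm.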
A647 fluor = compound autofluorescence in A647 spectral region; Compound fluorescence, A647 channel (570/671 nm), Tris buffer; 59,000 tested, under 10 active; AID 592; max dye-equivalent concentration, M; active means above 1 µM dye equivalent; inconclusive means 0.1 to 1 µM; inactive means 0.1 µM or less;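 also: values scaled relative to a standard on each plate; highest value over a series up to 38 µM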
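Compound fluorescence was measured in 100 mM Tris buffer, pH 8.0, after 15 min at room temperature, using 570 nm excitation and 671 nm emission filters. Signal was normalized to a per-plate Alexa 647 standard curve and expressed as dye-equivalent concentration at each compound concentration.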
Resorufin autofl = compounds fluorescent in resorufin spectral region | Compound fluorescence, resorufin region 547/598 nm, buffer; hits give high values | max dye-equivalent concentration, M | hit rate 0.04% among 59,000; active = above 10 nM dye equivalent; inconclusive = 1 to 10 nM; inactive = 1 nM or less; a few of its hits are not listed in these tables; also: highest value over a series up to 38 µM
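Dye-equivalent concentration values derive from comparing each well's 547/598 nm fluorescence against resorufin standards included on every plate. Incubation was 15 min at room temperature in 100 mM Tris, pH 8.0.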
* hit, by the source's call; i = inactive; ? = inconclusive; nt = not tested or not shown; & = joins results of further samples; [ ] = remark or other dose.

SMILES	AID923	A488 autofl	TSHR ag	A647 fluor	Resorufin autofl
CC(C)C12CN3CCN(CC(C3)C1O)C2 (configuration not stated)	0.3%	i	2%	1e-09	i
CCc1cc2c(s1)NC(=O)CN=C2c1cccs1	-0.7%	i	?	1.8e-08	i
c1ccc2[nH]c(CCNC3CCCCC3)nc2c1	1.2%	i	4%	2.4e-08	i
COc1ccc2c(c1O)-c1cccc3c1[C@H](C2)N(C)CC3	-1.2%	i	4%	1e-09	i
CCOC(=O)C1C2NC(=O)N(Cc3ccccc3)C1(C)Oc1c(OC)cccc12 (configuration not stated)	2.0%	i	4%	1e-09	i
Cc1ccc(N(C)C(=O)Oc2cccc3cccnc23)cc1	-0.3%	i	-4%	1e-09	i
O=C(NCCCN1CCOCC1)NC12CC3CC(CC(C3)C1)C2	-0.2%	nt	?	nt	nt
c1ccc2sc(C3CCCNC3)nc2c1 (configuration not stated)	-1.7%	i	4%	3.2e-08	i
c1ccc(-c2nnc(SCc3nc4ccccc4[nH]3)o2)cc1	-2.6%	nt	?	nt	nt
CN(C(=O)Cc1ccc(Cl)c(Cl)c1)[C@H](CN1CCCC1)c1ccccc1	-2.8%	nt	?	nt	nt
O=C(Nc1ccccn1)NC12CC3CC(CC(C3)C1)C2	-2.1%	i	20µM*	1e-09	i
C[C@@H](COc1ccccc1)N(CCCl)Cc1ccccc1	-0.7%[25.7 µM]	i	?	1.1e-08&3.2e-09	i
CC(C)(OOC(C)(C)c1ccccc1)c1ccccc1	-1.9%	nt	28%	nt	nt
N=C(N)c1c(O)n(C2CCCCC2)c(=O)n(C2CCCCC2)c1=O	0.5%	i	-4%	1.2e-08	i
O=P(O)(O)/C=C(\Cl)c1ccccc1	0.3%	nt	-2%	nt	nt
O=C1OCCN1P(=O)(c1ccccc1)c1ccccc1	1.4%	nt	-10%	nt	nt
CCN(CC)P(=O)(Oc1cccc(C)c1)N(CC)CC	-2.3%	nt	29%	nt	nt
COc1ccc2c(c1O)-c1c(OC)c(OC)cc3c1[C@H](C2)N(C)CC3	-1.5%	i	5%	2.4e-09&7.8e-09	i
CN(CCc1ccc(Cl)c(Cl)c1)[C@H]1CCCC[C@H]1N1CCCC1	-0.7%	nt	?	nt	nt
Cc1ccc2c(c1)CC1(CN2C)C(=O)NC(=O)N(CCC2=CCCCC2)C1=O (configuration not stated)	0.7%	i	5%	1e-09	i
CCOc1ccccc1-n1c(O)c(C=NCCCN(CC)CC)c(=O)[nH]c1=O	0.2%	i	10%	1e-09	i
CCNC(=O)C1OC(n2cnc3c(N)ncnc32)C(O)C1O (configuration not stated)	3.0%	nt	?	nt	nt
O=S(=O)(c1ccccc1)N1CN2CCN(C2)C1	-1.5%	i	-4%	2.5e-09	i
Fc1ccc2c(c1)nnn2C1CCN(Cc2nnnn2C2CCCCC2)CC1	1.2%	i	-3%	1.9e-09	i
Cc1ccc(Cn2nnnc2CN2CCC(n3nnc4cc(C(F)(F)F)ccc43)CC2)cc1	-0.2%	i	-6%	3.4e-08	i

Compound profiles, as listed above. Order of values: AID923, A488 autofl, TSHR ag, A647 fluor, Resorufin autofl
CCNC(=O)C1OC(n2cnc3c(N)ncnc32)C(O)C1O (configuration not stated) as listed: 3.0%, nt, ?, nt, nt
O=S(=O)(c1ccccc1)N1CN2CCN(C2)C1 as listed: -1.5%, i, -4%, 2.5e-09, i
COc1ccc2c(c1O)-c1cccc3c1[C@H](C2)N(C)CC3 as listed: -1.2%, i, 4%, 1e-09, i
COc1ccc2c(c1O)-c1c(OC)c(OC)cc3c1[C@H](C2)N(C)CC3 as listed: -1.5%, i, 5%, 2.4e-09&7.8e-09, i
O=C(NCCCN1CCOCC1)NC12CC3CC(CC(C3)C1)C2 as listed: -0.2%, nt, ?, nt, nt

Additional structures follow.
SMILES	AID923	A488 autofl	TSHR ag	A647 fluor	Resorufin autofl
O=C(C1CCCN(c2nnc(-n3cccc3)s2)C1)N1CCC2(CC1)OCCO2 (configuration not stated)	-0.3%	i	7%	5.3e-09	i
Cn1c(=O)oc2cc(S(=O)(=O)N3CCC(C(=O)N4CC=C(c5ccccc5)CC4)CC3)ccc21	1.5%	nt	?	nt	nt
CCC(=NCC1CCCO1)c1c(O)n(-c2ccc(Cl)cc2)c(=O)[nH]c1=O (configuration not stated)	0.7%	i	0%	1e-09	i
CCCCCc1cc(O)cc(O)c1	0.6%	nt	-15%	nt	nt
CCOC(=O)c1cn2nc(OP(=S)(OCC)OCC)cc2nc1C	0.0%	i	?	1e-09	i
CC(=O)c1cccc(NC2=NCC(C)S2)c1 (configuration not stated)	3.4%	nt	-15%	nt	nt
O=C(Nc1ccncc1)c1c(O)c2ccccc2n(Cc2ccccc2)c1=O	nt	i	nt	1e-09	i
CCCCC(=O)C1C(=O)NC(=O)NC1=O	0.2%	i	9%	1.1e-09	i
Nc1cccc2ccccc12	0.6%	nt	?	nt	nt
C[C@@]12CC[C@H](O)C[C@@H]1CC[C@H]1[C@H]2CC[C@@]2(C)[C@@H](C3=CC(=O)OC3)CC[C@]12O	-2.7%[25.7 µM]	i	nt	1e-09	i
CCN1C[C@]2(C)CC[C@@H](O)[C@]34[C@@H]5CC6[C@@H](OC)C[C@@](O)([C@H]5[C@@H]6O)[C@@H](C[C@@H]23)[C@H]14	-3.6%	i	5%	1.4e-08	i
Cc1oc(-c2ccc(Cl)cc2)nc1CS(=O)CC(=O)N1CCC2(CC1)OCCO2 (configuration not stated)	0.2%	i	-1%[11.4 µM]	3.3e-08	i
O=P1(NCCCl)OCCCN1CCCl (configuration not stated)	-0.1%[25.7 µM]	i	3%[25.6 µM]	1e-09	i
c1ccc2c(N3CCNCC3)cccc2c1	-2.3%	i	?	3.5e-09	i
O=C1C[C@@H]2OCC=C3CN4CC[C@]56c7ccccc7N1[C@H]5[C@@H]2[C@H]3C[C@@H]46	nt	i	7%	2.6e-08	i
CC12CN3CC(C)(CN(C1)C3c1ccco1)C2=O (configuration not stated)	0.1%	nt	-9%	nt	nt
CCC(=O)O[C@H]1CC[C@H]2[C@@H]3CCC4=CC(=O)CC[C@]4(C)[C@H]3CC[C@]12C	5.5%[25.7 µM]	i	?	1e-09	i
O=C1N[C@@]2(CN3CCC2CC3)C(=O)N1CN(Cc1ccccc1)c1ccccc1	0.8%[11.5 µM]	i	-6%[11.4 µM]	5.2e-09	i
NC[C@@H]1O[C@@H](O[C@H]2[C@@H](O)[C@H](O[C@@H]3[C@H](O)[C@H](N)C[C@H](N)[C@H]3O[C@@H]3O[C@@H](CO)[C@H](O)[C@H](O)[C@@H]3N)O[C@H]2CO)[C@H](N)[C@H](O)[C@@H]1O	1.4%	i	1%	8.5e-09	i
CCN(CC)CCCN=C(C)c1c(O)n(-c2ccc(C)cc2)c(=O)[nH]c1=O	0.8%	i	-1%	1e-09	i
Cc1ccc2c(c1)C1CN(C)CCC1N2C(=O)COc1ccc(S(=O)(=O)N2CCOCC2)cc1 (configuration not stated)	0.4%	i	-3%	4.1e-09	i
COc1ccc(OC)c(N2C(=O)NC(=O)C3(Cc4cc(C)ccc4N(C)C3)C2=O)c1 (configuration not stated)	0.8%	i	2%[11.4 µM]	4.2e-08	i
O=C(Nc1ccccc1)NC1CC2CCC(C1)N2 (configuration not stated)	0.3%	i	2%	1e-09	i
CN(C(=O)c1ccco1)C1(c2ccccc2Cl)CCCCC1=O (configuration not stated)	-1.1%	i	?	2.1e-08	i
CCCc1[nH]nc2c1C(CCC)C(C#N)=C(N)O2 (configuration not stated)	-0.6%	i	?	2.8e-09	i

Part of the list above, with two lines to a compound.
Each structure is followed by: AID923, A488 autofl, TSHR ag, A647 fluor, Resorufin autofl
CCCc1[nH]nc2c1C(CCC)C(C#N)=C(N)O2 (configuration not stated)
 : -0.6%, i, ?, 2.8e-09, i
CCC(=NCC1CCCO1)c1c(O)n(-c2ccc(Cl)cc2)c(=O)[nH]c1=O (configuration not stated)
 : 0.7%, i, 0%, 1e-09, i
O=C(Nc1ccncc1)c1c(O)c2ccccc2n(Cc2ccccc2)c1=O
 : nt, i, nt, 1e-09, i

(listing goes on)
SMILES	AID923	A488 autofl	TSHR ag	A647 fluor	Resorufin autofl
O=C(O)C1=CCCN(CCOC(c2ccc(C(F)(F)F)cc2)c2ccc(C(F)(F)F)cc2)C1	1.3%	nt	-2%	nt	nt
COc1cc2c(cc1O)CCN[C@H]2C	nt	i	2%	1.8e-09	i
CSc1ccc(CNC2CN3CCC2CC3)cc1 (configuration not stated)	1.1%	i	2%	2.6e-08	i
Cc1cccc(N2C(=O)CC(=O)NC2=O)c1	-0.6%	i	0%	1e-09	i
O=C(O)[C@@H]1C[C@H]2C[C@@H](CP(=O)(O)O)CC[C@H]2CN1	2.1%	nt	4%	nt	nt
CC(C)[C@@]1(NC(=O)[C@H]2C[C@H]3c4cccc5[nH]cc(c45)C[C@@H]3N(C)C2)O[C@]2(O)[C@H]3CCCN3C(=O)[C@H](Cc3ccccc3)N2C1=O	nt	i	-39%[inhibitor]	2.5e-08	i
O=c1[nH]c2ccccc2n1C1CCN(CCCC(c2ccc(F)cc2)c2ccc(F)cc2)CC1	-3.7%	i	-1%	1.7e-08&3.9e-08&2.8e-08	i
CCOC(=O)c1cccc([P+](=O)O)c1	-2.6%	i	4%	7.7e-09	i
O=[N+]([O-])c1cc(Cl)c(Cl)c(Cl)c1	0.5%	nt	1%	nt	nt
COc1ccccc1/C=C1/C(=N/O)C2CCN1CC2	1.6%	nt	-4%	nt	nt
O=c1[nH]c(=O)n(Cc2ccco2)c(O)c1C=NCCCn1ccnc1	nt	i	nt	6e-09	i
COc1cc2c(C(=O)N3CCN(C)CC3)c(C)n(C)c2cc1Br	5.0%	i	?	2.5e-09	i
O=c1[nH]c(=O)n(C2CCCCC2)c(O)c1C=NCCCn1ccnc1	nt	i	nt	4.5e-08	i
CN1CC[C@]2(C)c3cc(O)ccc3N(C)[C@@H]12	4.2%[25.7 µM]	i	1%	3.4e-09&2e-09&1e-09	i
OC1(c2ccc(F)cc2)CCNC1 (configuration not stated)	nt	i	nt	4.4e-08	i
CC(C)(O)[C@H]1[C@H]2OC(=O)[C@@H]1[C@]1(O)C[C@H]3O[C@]34C(=O)O[C@H]2[C@]14C (tested in a mixture with another compound)	3.2%	i	9%	1e-09	i
COc1cccc(C2=NOC(C(=O)N3CCC4(CC3)OCCO4)C2)c1 (configuration not stated)	0.7%	i	10%	4.7e-09	i
Cc1nn(Cc2ccccc2)c(C)c1C(=O)OCC(=O)Nc1ccccc1SCC#N	3.4%	i	?	6e-09	i
CCOP(=O)(NC(C)C)Oc1ccc(SC)c(C)c1 (configuration not stated)	-2.0%	nt	?	nt	nt
C#CCN(C)[C@@H](C)Cc1ccccc1	-1.9%[25.7 µM]	i	3%[25.6 µM]	3e-09&1e-09	i
CC(C)c1ccc(C(O)(C(=O)O)c2ccc(C(C)C)cc2)cc1	3.8%[11.5 µM]	i	7%[11.4 µM]	2.9e-08	i
CC(C)c1ccc(C(c2c(O)c3ccccc3oc2=O)c2c(O)c3ccccc3oc2=O)cc1	-0.9%[11.5 µM]	i	8%[11.4 µM]	3.4e-08	i
OC[C@H]1CCCN2CCCC[C@@H]12	nt	i	-1%	3e-09	i
CC(C)Nc1ccc(Nc2ccccc2)cc1	-1.1%	nt	?	nt	nt
CCOC(=O)C1=C(N)Oc2c(c(=O)oc3ccccc23)C12C(=O)N(C)c1ccccc12 (configuration not stated)	-1.6%	i	nt	1e-09	i
O=C(Cn1ncc2c3ccccc3n(Cc3ccccc3)c2c1=O)N1CCC2(CC1)OCCO2	-0.3%	i	-20%	9.8e-09	i

2 of these compounds, set out differently.
| compound | AID923 | A488 autofl | TSHR ag | A647 fluor | Resorufin autofl |
| --- | --- | --- | --- | --- | --- |
| O=C(Nc1ccncc1)c1c(O)c2ccccc2n(Cc2ccccc2)c1=O | nt | i | nt | 1e-09 | i |
| CCCCC(=O)C1C(=O)NC(=O)NC1=O | 0.2% | i | 9% | 1.1e-09 | i |

An excerpt. The share of hits here may be higher or lower than overall.
